Bioassay records deposited in PubChem by several laboratories.
Env fusion inh: inhibitors of HIV-1 Env-driven cell-cell fusion, primary screen, HeLa-JRFL effector, CEM21 target cells, luciferase; inhibition, % at 12.3 µM; 360,000 compounds, 1.1% hits;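 active = mean replicate inhibition score of at least 50 and every replicate individually at or above 50; inconclusive = only one of the two criteria met; inactive = mean below 50 and not all replicates reaching 50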;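 also: 0% = plate neutral controls and 100% = maraviroc near 300 nM; one replicate is shown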
CSC inhib: cancer stem cell viability inhibitors, primary screen, luminescence. inhibition, % at 7.5 µM. AID 2717, 2010. 300,000 compounds, 1.1% hits. cancer stem cell-like cells viability;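 active = mean at 75% or more and at least half the replicates too; inconclusive = mean and replicates disagree; tested in HMLE shEcad cells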;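 also: 0% = median of negative and 100% = median of positive control wells; the first replicate is given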
eIF4H FP inh: human eIF4H binding inhibitors, primary screen, translation initiation inhibitor project, biochemical, uHTS, fluorescence polarization. Eukaryotic translation initiation factor 4H (Homo sapiens), Q15056. eIF4H fluorescence polarization binding assay. inhibition, % at 35 µM. 290,000 compounds, 0.94% hits. AID 2012, 2009;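 active = 50% or more with normal probe brightness, or confirmed in later tests; inconclusive = above 50% with abnormal brightness, or retests that disagree; inactive = below 50% or failed in later tests; about a fifth of its hits are not listed in these tables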;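 also: calls also rest on retests at 20 µM and on dose response follow-up; 0% = protein and probe with vehicle and 100% = probe without protein; strong numbers were not always called active; many hits fall short of the cut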
MT1-MMP act inh: blockers of MT1-MMP proenzyme processing, primary screen, HT1080 RFP-PRO-GFP cells, GFP/RFP fluorescence; GFP/RFP ratio change, % at 20 µM; Matrix metalloproteinase-14 (Homo sapiens), P50281; 360,000 compounds, 0.061% hits; AID 651647, 2012; GFP/RFP ratio fluorescence, overnight; percent of plate control window, DMSO zero;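 active = GFP/RFP ratio change of at least 30% with cell ATP level not reduced by more than half and red fluorescence within 50% of control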; also: strong numbers were not always called active
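Material: RFP-PRO-GFP reporter HT1080 cells. Dosing: single-point 20 µM compound, 1% DMSO. Controls: DMSO and RFP-L50D-GFP cell wells. Timing: cells overnight before dosing, compound overnight, 37 °C, 5% CO2. Measure: GFP/RFP fluorescence ratio.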
Yeast UUG start: modulators of yeast start codon fidelity, primary screen, whole organism, S. cerevisiae, single point, plate reader; activity score, % at 18.7 µM; S. cerevisiae UUG-firefly luciferase reporter, luminescence/redox ratio; 350,000 compounds, 0.13% hits;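 active = replicate mean at a twofold rise or more, about +100% in these data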;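 also: firefly luciferase made from a UUG start codon reports start codon fidelity; reporter light over untreated wells divided by growth signal over untreated wells; some hits fall short of that in this replicate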
PABP FP inh: PABP poly(A) RNA binding inhibitors, primary screen, biochemical, fluorescence polarization, uHTS | AID 2014, 2009 | 290,000 compounds, 1% hits | Polyadenylate-binding protein 1 (Homo sapiens), P11940 | inhibition, % at 35 µM;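 active = 50% or more with normal probe brightness, or confirmed in later tests; inconclusive = above 50% with abnormal brightness, or retests that disagree; inactive = below 50% or failed in later tests; about a fifth of its hits are not listed in these tables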;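 also: calls also rest on retests at 20 µM and on dose response follow-up; controls were probe without protein and protein plus probe with vehicle; some compounds called inactive have numbers as strong as hits; many hits fall short of the cut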
Rce1 inh: yeast Rce1p protease inhibitors, primary screen, biochemical, fluorescence, cell-free homogeneous | yeast membranes, quenched prenylated peptide cleavage fluorescence | calls only | 290,000 compounds, 0.27% hits | CAAX prenyl protease 2 (Saccharomyces cerevisiae (strain ATCC 204508 / S288c)), Q03530;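 active = fall in fluorescence gain of 50% or more versus controls, with final raw signal at or below 3038400; inconclusive = same 50% fall but final raw signal above 3038400; inactive = fall in fluorescence gain under 50%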;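 also: plate controls were neutral control wells for no effect and wells lacking membranes for full effect; tested at 10 µM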
Target sequence (Q03530 whole entry, looked up): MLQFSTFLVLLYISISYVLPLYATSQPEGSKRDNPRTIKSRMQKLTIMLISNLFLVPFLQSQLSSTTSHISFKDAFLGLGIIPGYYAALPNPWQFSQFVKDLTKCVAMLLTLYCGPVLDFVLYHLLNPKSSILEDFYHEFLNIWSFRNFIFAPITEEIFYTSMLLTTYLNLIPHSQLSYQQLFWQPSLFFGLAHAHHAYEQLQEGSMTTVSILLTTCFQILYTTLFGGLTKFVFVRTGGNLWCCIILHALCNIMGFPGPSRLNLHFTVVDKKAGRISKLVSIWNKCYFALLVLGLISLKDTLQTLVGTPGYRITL
eIF4H FP inh retest: further read-out of eIF4H FP inh, marked with its call; inhibition, %; compound at 20 µM; confirmation average;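 mean of two retest wells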
PABP FP inh retest: second read-out of PABP FP inh, no call of its own (marks repeat the call); inhibition, %; compound at 20 µM; confirmation repeats;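 mean of two retest wells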
MT1-MMP act inh RFP: also measured in MT1-MMP act inh; calls as there; RFP signal change, %; measured here: RFP expression control read;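 0 = vehicle wells; hits needed this value within 50% of zero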
Starred values were filed as active, the others as inactive; i = inactive; ? = inconclusive; . = no result given. Not all compounds are listed; rates above refer to the full screens.

SMILES	Env fusion inh	CSC inhib	eIF4H FP inh	MT1-MMP act inh	MT1-MMP act inh RFP	Yeast UUG start	PABP FP inh	Rce1 inh	others
Cn1c(=O)c(Oc2ccc(F)cc2)c(O)c2ccccc21	18.3	-1.9	2.4	-1.4	7.0	.	-3.5	i
COc1cccc(NC(=O)Nc2ccc3c(c2)CCC3)c1	-72.2	23.8	7.2	2.4	-0.2	-8.5	10.7	i
Oc1ccc(C[C@H]2CNC(=S)N2CC2CCCN2C[C@H](Cc2ccc(O)cc2)N2C[C@H](Cc3ccccc3)N(CC3CCCCC3)C2=S)cc1 (some centres not stated)	49.0	.	.	-11.9	-21.3	-18.0	.	.
Cc1cc(C)n(CCN(C)Cc2cn[nH]c2-c2ccc(F)cc2F)n1	-7.0	-10.6	-4.2	0.2	2.4	.	3.0	i
CCCCC(=O)Nc1ccc(F)c(Cl)c1	-91.2	-9.1	-7.1	-2.2	-4.5	-12.4	4.4	i
CCN(CC(=O)NC1CC1)S(=O)(=O)c1ccc(C)cc1	-6.5	-9.4	4.3	-0.8	0.8	-20.7	0.8	i
CCCn1c(=O)c(C(=O)NCCc2ccc(Cl)cc2)c(O)c2ccccc21	3.3	36.5	-13.4	-2.3	1.2	-10.9	1.7	i
CC1=C(c2ccc(C)cc2)[N+](=O)C(C)(C)N1[O-]	-0.3	-4.0	2.2	-9.1	-3.3	.	3.3	i
Cc1cc(/C=C2/NC(=S)NC2=O)c(C)n1-c1cccnc1	4.1	-0.2	19.1	-0.8	10.1	.	-3.5	i
Cc1ccc(C(=O)NCCNC(=O)c2cccnc2)cc1	-4.1	-3.1	4.6	-2.3	-0.9	-11.6	-9.2	i
O=C1CC(c2ccc(F)cc2)C2=C(CCCC2=O)N1 (configuration not stated)	.	-4.0	0.0	0.5	4.3	-10.2	8.4	i
CC(C)(C)OC(=O)N1CCC2(CC1)Oc1ccc(F)cc1C(=O)C21CC(c2cccnc2)=NO1 (configuration not stated)	10.8	-4.5	-5.6	-0.8	0.5	36.7	2.2	i

Random excerpt: 4 entries already listed, in no set order.
SMILES	Env fusion inh	CSC inhib	eIF4H FP inh	MT1-MMP act inh	MT1-MMP act inh RFP	Yeast UUG start	PABP FP inh	Rce1 inh	others
CC(C)(C)OC(=O)N1CCC2(CC1)Oc1ccc(F)cc1C(=O)C21CC(c2cccnc2)=NO1 (configuration not stated)	10.8	-4.5	-5.6	-0.8	0.5	36.7	2.2	i
O=C1CC(c2ccc(F)cc2)C2=C(CCCC2=O)N1 (configuration not stated)	.	-4.0	0.0	0.5	4.3	-10.2	8.4	i
CCCCC(=O)Nc1ccc(F)c(Cl)c1	-91.2	-9.1	-7.1	-2.2	-4.5	-12.4	4.4	i
Cc1cc(/C=C2/NC(=S)NC2=O)c(C)n1-c1cccnc1	4.1	-0.2	19.1	-0.8	10.1	.	-3.5	i

More structures:
SMILES	Env fusion inh	CSC inhib	eIF4H FP inh	MT1-MMP act inh	MT1-MMP act inh RFP	Yeast UUG start	PABP FP inh	Rce1 inh	others
O=C(COC(=O)c1ccc2[nH]c3c(c2c1)CCCC3)Nc1ccccc1	6.7	49.8	1.5	-3.1	-8.2	.	-4.5	i
Cc1c(C(=O)NCc2ccccc2C(F)(F)F)sc(=O)n1Cc1cccc(C(F)(F)F)c1	-61.5	.	.	4.2	-4.1	-24.7	.	.
O=C(CCc1ccc(S(=O)(=O)N2CCOCC2)cc1)Nc1ccc(F)cc1[N+](=O)[O-]	16.5	-13.2	.	2.7	-0.9	3.3	.	.
NC(=O)C(F)(F)C12OC3C4C5CC(C6C5C3C61)C42 (configuration not stated)	.	.	-11.5	-1.1	-0.9	-20.6	-2.4	i
COc1cc(NC(=O)C2CCCCC2)c(OC)cc1NC(=O)c1ccccc1	6.7	-6.0	-4.2	3.1	4.2	-13.3	10.5	.
C/C(CC(=O)Nc1ccc2c(c1)OCCO2)=N\NC(=O)COc1ccccc1C	-5.7	-9.3	3.9	0.8	2.4	-21.9	0.9	.
COc1ccccc1C(=O)C1CCCN(Cc2cn[nH]c2C2CCCCC2)C1 (configuration not stated)	16.9	-4.0	-8.4	6.2	10.3	.	-3.8	i
Cc1ccc(Cl)cc1N1CCN(C(=O)c2ccc(CS(=O)Cc3ccc(Cl)cc3)o2)CC1 (configuration not stated)	16.1	24.7	-11.3	3.2	2.0	-12.7	-2.5	i
Cc1ccnc(NC(=O)c2cccc(NC(=O)c3ccccc3C)c2)c1	-3.7	-7.5	-8.4	-0.5	2.2	-21.2	-6.9	i
CC(C)Oc1cccc(-c2cc(C(=O)N3CCN(S(C)(=O)=O)CC3)c3ccccc3n2)c1	.	-7.6	1.8	7.3	-2.6	-9.0	7.9	i
Cc1cc(NC(=O)CSCC(=O)OCc2nnc(-c3ccccc3)o2)no1	-2.2	-16.6	-4.2	1.1	1.3	-4.1	-7.8	i
CC(=O)c1ccc(NC(=O)C2CCN(S(=O)(=O)c3cccc4cccnc34)CC2)cc1	-4.3	4.1	-13.0	-0.6	6.2	-9.8	-22.1	i
CCCCNC(=O)C12CCC(C)(C(=O)C1Br)C2(C)C (configuration not stated)	-14.2	-7.2	-3.7	4.2	1.0	-12.7	4.6	i
CCOC(=O)C1=C(COC(=O)CCOc2ccccc2)NC(=O)NC1C (configuration not stated)	-23.6	-6.0	.	0.0	2.3	-2.2	.	.
COc1ccccc1N1CCN(C(=O)c2ccc(Cn3c(=O)[nH]c4ccsc4c3=O)cc2)CC1	18.6	-13.7	-4.7	-10.2	-6.1	11.3	5.6	i
CSc1ncccc1C(=O)NCCc1ccc(Cl)cc1	12.4	.	-3.5	5.6	3.3	.	12.1	i
CC(=O)N1CCN(C(=O)CCNS(=O)(=O)c2ccc(Br)cc2)CC1	.	5.8	.	-0.4	0.1	-9.0	.	.
Cc1cc(=O)oc2c3c(cc(OCC(=O)NCc4ccccc4)c12)OC(C)(C)CC3	.	0.9	-5.3	13.6	-3.4	-5.2	-2.6	i
CC(=O)c1ccc(C(=O)N(C)C2CCCN(Cc3ccccc3F)C2)s1 (configuration not stated)	-11.3	-0.5	-16.4	0.5	2.1	-4.9	-4.2	i
CN(CCC#N)C(=S)Nc1ccc(S(=O)(=O)N2CCOCC2)cc1	-11.6	-1.4	-8.1	0.5	-0.9	.	-2.1	i
Cc1nn(-c2cccc(Cl)c2)c(Cl)c1/C=N/NC(=O)c1cccs1	1.8	30.0	-23.3	2.5	3.7	.	-4.8	i
CCN(CC)CCCN1C(=O)CSC1c1ccc2c(c1)OCO2 (configuration not stated)	.	-9.2	-2.0	-0.1	2.4	-18.0	4.5	i
CCC(C)NC(=O)CSc1nc2n[nH]c(C)c2c(=N)n1-c1ccc(OC)cc1 (configuration not stated)	.	-6.9	10.6	0.2	-4.7	-6.4	16.4	i
COc1cc(O)c(CCC(=O)c2ccc(OC)c(OC)c2)c(OC)c1	-19.9	9.4	13.7	0.2	-4.0	-2.3	6.8	i
CN1CCN(c2ccc(S(=O)(=O)N3CCOCC3)cc2NC(=O)CSCc2ccccc2)CC1	.	-8.0	.	1.5	0.6	-9.2	.	.
CCn1nc(C(=O)OC(C(=O)c2c[nH]c3ccccc23)c2ccccc2)c2ccccc2c1=O (configuration not stated)	-2.9	17.1	-9.4	1.5	-1.6	-2.4	-6.7	i
Cc1ccc(C)c(NC(=O)C(Sc2cccc[n+]2[O-])c2ccccc2)c1 (configuration not stated)	0.3	-7.7	-5.8	-5.5	1.1	.	0.1	i
CN(C)C(=O)CSc1nnc([C@H](Cc2ccccc2)NC(=O)OC(C)(C)C)o1	9.9	-10.0	-1.5	1.4	1.8	-16.2	17.9	i
O=C(CSc1cccc2cccnc12)N/N=C/c1ccc(O)cc1	15.7	-5.8	1.4	-0.9	1.5	-16.8	0.5	i
Cc1nnc(SCC(=O)N2CCCC(C(=O)c3ccc(Cl)cc3)C2)o1 (configuration not stated)	-4.1	-13.9	2.3	0.1	-0.6	1.1	-0.9	i
COc1ccc(CNC(=O)C2CCCN(S(=O)(=O)c3ccccc3)C2)cc1 (configuration not stated)	-3.1	-2.1	-1.0	0.7	1.8	-7.0	-15.4	i
O=C(CCC(=O)N(CC(=O)NC1CCCC1)Cc1ccc(F)cc1)Nc1nccs1	-13.0	3.1	1.1	-4.4	-0.3	-3.8	12.5	i
CC(C(=O)N1CCN(c2ccc(Cl)cc2)CC1)c1ncc(C(F)(F)F)cc1Cl (configuration not stated)	45.9	-0.1	-3.2	.	.	12.7	9.7	i
CC(=O)c1c(C)n(CC(=O)NCc2ccco2)c2ccccc12	6.5	-7.7	2.9	-1.1	2.8	-6.0	-7.1	i
CN1CC(=O)N(CC(=O)NCc2ccc3c(c2)OCO3)C1=O	.	-10.1	-14.8	-1.5	-3.0	-11.1	-4.0	.
CCOC(=O)C1CCCN(CC(=O)Nc2nccs2)C1 (configuration not stated)	-4.9	0.7	9.3	-2.2	0.2	-13.9	1.7	i
Brc1ccc(-c2ccc(/C=N/Nc3nncc(-c4ccccc4)n3)o2)cc1	-43.9	-7.1	-1.9	-0.7	1.9	-20.1	-5.7	i
CCCc1cc(=O)oc2c(CN3CCCC3)c(O)c(Cl)cc12	14.2	-2.7	108.0*	-12.4	0.4	-4.5	116.3*	?	eIF4H FP inh retest=63.4*;PABP FP inh retest=59.3*
COCc1nnc(NC(=O)c2ccc(NC(=O)C(C)C)cc2)s1	-25.4	-7.5	1.7	0.4	3.4	-12.2	7.4	i
Cc1cccc(NC(=O)COC(=O)Cc2cccs2)c1C	-8.0	-6.3	.	0.2	5.1	-11.8	.	i
O=C(O)c1ccccc1-c1nc(-c2ccccc2)c(-c2ccccc2)[nH]1	10.9	-2.4	-1.2	-0.9	1.7	.	-3.1	i
Cc1ccc(CS(=O)(=O)Cc2ccc(C(=O)NC3CC3)o2)cc1	-5.1	-8.1	-10.6	6.3	-9.4	9.3	4.1	i
CC(C)(C)C(=O)N1CCN(c2ccc([N+](=O)[O-])c(NCc3cccnc3)c2)CC1	21.4	2.9	5.9	1.8	-3.7	.	-7.4	i
COC(=O)CNC(=O)C1Nc2ccccc2C2C=CCC12 (configuration not stated)	-123.0	-2.8	.	-5.0	4.6	-20.0	.	i
CCOc1ccc(Br)cc1CN(CC)CC	-10.4	5.5	-2.2	-2.6	-1.4	-13.5	-1.3	i
CNC(=S)N1CCN(c2nc3ccccc3s2)CC1	-42.9	-4.5	2.3	4.5	0.3	.	-2.9	i
CC(=O)Nc1ccc(C(=O)Nc2cccc(S(=O)(=O)N(C)c3ccccc3)c2)cc1	6.9	.	.	7.1	-9.0	7.9	.	.
O=C(C[C@@H]1C/C=C\C[C@@H](Cc2ccc(F)cc2)C(=O)OC[C@H]2CCCN2C1=O)N[C@H](CO)Cc1ccccc1	1.7	.	.	-2.2	-3.2	6.7	.	.
